Screens (PubChem BioAssay)
GIV Gai3 FP – blocks GIV peptide binding to rat Galpha-i3 | percent of control (FP), % (concentration not given with the values) | hit rate 0.42% among 210,000 | P08753 | Galpha-i3/FITC-GIV peptide fluorescence polarization, 90 min; hits give low values; scaled: aluminum fluoride 0%, vehicle 100%;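 active means replicate mean at 85% of control or lower, very high polarization wells dropped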;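 further: wells of about 15 µL received 100 nL stock; the first replicate is given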
Target sequence (P08753 whole entry, looked up): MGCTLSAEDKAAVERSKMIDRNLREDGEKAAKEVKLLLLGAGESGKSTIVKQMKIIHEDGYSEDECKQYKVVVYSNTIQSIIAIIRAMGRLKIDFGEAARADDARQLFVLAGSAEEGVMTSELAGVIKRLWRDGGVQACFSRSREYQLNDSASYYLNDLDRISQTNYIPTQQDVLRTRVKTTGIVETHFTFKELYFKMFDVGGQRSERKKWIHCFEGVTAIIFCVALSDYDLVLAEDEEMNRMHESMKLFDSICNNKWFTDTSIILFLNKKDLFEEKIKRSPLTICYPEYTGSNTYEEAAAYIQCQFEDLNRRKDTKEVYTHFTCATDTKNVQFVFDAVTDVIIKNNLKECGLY
Sa growth inh – S. aureus growth inhibition | S. aureus RN4220 growth, OD600, 20 h, 42 °C; hits give low values | relative growth, % (concentration not given with the values) | hit rate 0.53% among 170,000 | AID 720641;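 active means growth at 42 °C up to 50% and 20 or more points under that at 30 °C, or under 10% at both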;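 further: 300 nL library stock went into each well; scaled to the means of positive and negative controls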
HCMV NEC inh – cytomegalovirus nuclear egress complex inhibition | HTRF UL50-UL53 interaction, normalized percent inhibition | inhibition, % (test concentration not listed) | hit rate 0.15% among 190,000;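 active means both replicates at 50% or more, plus weaker picks with an unusually low signal ratio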;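 further: stock transfer was 100 nL into about 20 µL; 0% = negative control wells and 100% = wells with untagged competitor protein; inactives centre near -12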
Sa growth inh second temp – recorded beside Sa growth inh, whose call it bears; relative growth, %; measured here: growth at 30 °C;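 optical density after 20 h as mean of two plates; 100% = untreated growth and lower means inhibition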
Numbers without * were called inactive; . = not tested or not shown; & = joins results of further samples. Random draw from the library; any-hit rate near 0.85%.

SMILES	GIV Gai3 FP	Sa growth inh	Sa growth inh second temp	HCMV NEC inh
CCc1ccc(CNCc2c(C(=O)O)n(Cc3ccc(F)cc3Cl)c3cc(OC)ccc23)cc1	102	94	102	.
CCOC(=O)c1ccc(CNS(=O)(=O)c2c(C)ccc3nsnc23)o1	102	124	90	-73
CC(C)c1cc(C(C)C)c(S(=O)(=O)N2CC3C4C=CC(C4)C3C2)c(C(C)C)c1 (stereo not drawn)	101	113	87	.
CC1CCN(S(=O)(=O)c2ccc3c(c2)CCC(=O)N3CC(=O)Nc2ccc3c(c2)OCCO3)CC1	107	.	.	-3
COc1ccc(/C=C2\COc3ccccc3C2=O)c(OC)c1	.	58	53	-10
O=C(NCc1ccco1)C1Cc2cc(Cl)ccc2O1 (stereo not drawn)	.	90	89	-23
CCOC(=O)c1sc2nc[nH]c(=O)c2c1C	103	102	76	.
O=C(Nc1cccnc1)C1=NN(C2CCS(=O)(=O)C2)C(=O)CC1 (stereo not drawn)	.	122	84	-6
O=C(/C=C/c1cccs1)OCC1CCCO1 (stereo not drawn)	.	85	86	-78
CCC(C)Sc1n[nH]c(=S)s1 (stereo not drawn)	99	68	72	-15
Cc1ccc(CNC(=O)c2c[nH]c3ccc(S(=O)(=O)N4CCOCC4)cc3c2=O)cc1	99	116	97	.
O=c1oc2ccccc2cc1-c1nn(-c2ccccc2)cc1C=NCc1ccccc1	96	109	87	.
COc1cc2c(c(OC)c1)C(c1ccccc1OC)CC(=O)N2 (stereo not drawn)	104	97	88	.
O=C(C1COc2ccccc2O1)N(Cc1cccnc1)c1nc2ccc(Cl)cc2s1 (stereo not drawn)	105	118	86	.
CCOC(=O)CC(NC(=O)CCc1c(C)nc2ncnn2c1C)c1ccc(OC(C)C)cc1 (stereo not drawn)	109	101	102	2
Cc1cc(N2CCN(c3cccc(C(F)(F)F)c3)CC2)n2nc(-c3ccccc3)nc2n1	105	98	89	-16
Cc1ccccc1C(=O)Nc1ccc2[nH]c(=O)oc2c1	106	.	.	-17
O=C(c1ccc(CS(=O)(=O)Cc2ccc(Cl)cc2)o1)N1CCCC1	99	110	77	.
C=CCOC(=O)C1=C(C)OC(N)=C(C#N)C1c1c(C)nn(-c2ccccc2)c1Cl (stereo not drawn)	104	.	.	-15
COc1ccc(/C=C/C(=O)Nc2ccc3nc4n(c(=O)c3c2)CCCC4)cc1	99	101	89	.
O=c1c2sc3ccccc3c2n(Cc2ccc(F)cc2)c(=O)n1Cc1ccco1	98	105	81	-3
COc1ccc(Cl)cc1NC(=O)CSc1c2c(nc3ccccc13)CCC2	105	104	94	-14
O=C(Oc1ccc2c(=O)c(Oc3ccccc3Br)c(C(F)(F)F)oc2c1)c1ccco1	98	.	.	-31
COC(=O)C1C(=O)NC(SC)=C(C#N)C1c1ccccc1F (stereo not drawn)	103	90	82	-28
CCC(CC)NC(=O)Cc1ccc(F)cc1	99	100	85	-7
CC1=C(C(=O)N(C)C)C(c2ccc(-c3ccccc3)cc2)NC(=O)N1 (stereo not drawn)	.	112	97	-6
O=C(CSc1nccn1Cc1ccc(Cl)cc1)Nc1ccc2c(c1)OCO2	101	98	78	.
COc1ccc(-c2c(C)nn3c(NCC(OC)OC)cc(C)nc23)cc1OC	104	76	79	-20
Cc1cccc(-c2nnc(SCC(=O)OC(C)C)n2C)c1	103	99	95	-20
Cc1cc(C)c2cc(C(=O)N(C)c3ccc(Cl)cc3)[nH]c2c1	98	97	77	-12
Cc1noc(/C=C/N(C)C)c1S(=O)(=O)N1CCCC(C(=O)Nc2ccc(F)cc2F)C1 (stereo not drawn)	104	102	88	-22
O=C(/C=C/c1cccc(Cl)c1)Nc1ccc(N2CCOCC2)cc1	.	91	79	-39
CCn1nc(C)c2c(-c3ccccc3)cc(=O)n(C(C)C(=O)Nc3cc(C)ccc3C)c21 (stereo not drawn)	99	90	99	.
O=C(c1cccs1)N1CCN(c2ncccn2)CC1	101	114	103	.
Cc1ccc(-c2noc(CSc3nnc(C)n3-c3ccc(C)c(C)c3)n2)cc1	105	98	88	-16
CCCSc1nnc2nc3c(nn12)c1ccccc1n3C	98	81	79	-83
CC1CCC(NC(=O)CN2C(=O)CCc3cc(S(=O)(=O)N4CCCCC4)ccc32)CC1 (stereo not drawn)	105	.	.	-29
CCOC(=O)c1sc(NN)nc1C	103	70	61	.
CCc1ccc(NC(=O)Cn2c(=O)n(Cc3ccc4c(c3)OCO4)c(=O)c3oc4ccccc4c32)cc1	100	123	94	.
FC(F)(F)c1cc(-c2ccc3ccccc3c2)nn1C(=S)N1CCCCCC1	99	101	112	.
COCCCNC(=O)Cn1cnc2sc(C)c(S(=O)(=O)N3CCN(c4ccccc4OC)CC3)c2c1=O	101	78	82	-9
Cn1c(=O)c2c(-c3ccccc3)n(-c3cccc(C#N)c3)cc2n(C)c1=O	94	106	87	-14
Cc1cc(C(=O)Nc2ccc(Cl)cc2)n(-c2ccccc2)n1	108	97	91	.
CC(Oc1ccc2ccccc2c1)C(=O)NN (stereo not drawn)	105	97	90	.
CCc1ccc(-c2cc(C)no2)cc1S(=O)(=O)N1CCc2ccccc21	111	83	85	-41
O=C(NCCSCc1cccc(Cl)c1)C1CCN(S(=O)(=O)Cc2ccccc2)CC1	107	94	85	-31
COc1ccc(S(=O)(=O)Nc2ccc(Nc3cc(N(C)C)nc(C)n3)cc2)cc1C	96	.	.	16
COC(=O)c1ccc(C(=O)Nc2ccc3nc(NC(=O)c4ccc(C(=O)OC)cc4)sc3c2)cc1	99	.	.	-2
COC(=O)c1cc(C(=O)OC)c(=O)[nH]c1C	113	96	90	-5
Cc1cccc(C)c1NC(=O)Cn1cc(S(=O)(=O)Cc2ccc(F)cc2)c2ccccc21	104	124	81	.
COCCNC(=O)C1CCCN(c2ncnc3onc(-c4ccc(F)cc4)c23)C1 (stereo not drawn)	99	.	.	6
O=C(COC(=O)Cc1cccc(C(F)(F)F)c1)Nc1ccc2c(c1)OCO2	.	101	88	-15
COc1ccc(-c2noc(CN(C(=O)c3ccccc3Cl)C(C)C)n2)cc1	104	108	86	-8
CCOC(=O)c1c(C(F)(F)F)cc(-c2ccccc2)nc1C	106	114	118	-9
O=C(c1c2c(nc3ccccc13)C(=O)N(C1CCCCC1)C2)N1CCOCC1	106	.	.	-38
Cc1c(NC(=O)c2ccc(CN3CCc4ccccc4C3)cc2)c(=O)n(-c2ccccc2)n1C	107	.	.	-10
Cc1ccc(S(=O)(=O)NCCc2nnc3ccc(SCc4ccc(F)cc4)nn23)cc1	107	85	75	.
COc1ccccc1C(=O)Nc1ccc2c(c1)COC2=O	105	115	101	-23
CCc1ccc(C(=O)c2cn(CC(=O)Nc3ccc(OC)cc3)c3cc4c(cc3c2=O)OCCO4)cc1	104	97	83	-40
CC1(C)CC(=O)C2=C(C1)NC(Nc1nc3ccccc3s1)=NC2c1cccnc1 (stereo not drawn)	105	93	95	-24

(cont.)
SMILES	GIV Gai3 FP	Sa growth inh	Sa growth inh second temp	HCMV NEC inh
COc1ccc(C2=NN3C(C2)c2cc(Cl)ccc2OC3c2ccncc2)cc1OC (stereo not drawn)	104	.	.	-26
CC(C)Oc1ccc(C(=O)N(Cc2ccc(N(C)C)cc2)Cc2ccco2)cc1	104	109	83	-10
Cc1ccc(C(c2nnnn2CS(=O)(=O)c2ccc(C)cc2)N2CCCC2)cc1 (stereo not drawn)	98	111	92	-2
COc1ccc2c(c1)c(C(=O)O)c(C)n2-c1ccc(Cl)cc1	104	127	69	.
O=C1COCC(=O)N1c1ccccn1	102	107	98	-1
CCN(CC)CCCNC(=O)c1sc2ncnc(N3CCCCC3C)c2c1C (stereo not drawn)	109	.	.	-15
COc1ccc(Cl)cc1NC(=O)CSc1nnc(C)n2c1cc1sccc12	102	111	94	.
O=C(CCCn1c(=S)[nH]c2cc3c(cc2c1=O)OCO3)NC1CCCCC1	112	102	93	0
Cc1cccc(-c2nc(C)c(CCNC(=O)c3c(F)cccc3F)s2)c1	95	98	82	.
CCOC(=O)C(CC)C(N)Cc1ccc(OC)c(OC)c1 (stereo not drawn)	107	102	91	-6
O=C(Nc1ccc2c(c1)OCCO2)c1ccc(Nc2ccnc(-c3ccccc3)n2)cc1	105	.	.	-13
CC(C)c1ccc(NC(=O)CCCc2nc3cccnc3n2Cc2cccnc2)cc1	107	.	.	-13

Whole records as entered above. Screens in order: GIV Gai3 FP, Sa growth inh, Sa growth inh second temp, HCMV NEC inh
CCc1ccc(CNCc2c(C(=O)O)n(Cc3ccc(F)cc3Cl)c3cc(OC)ccc23)cc1 is entered as 102, 94, 102, .
O=C(/C=C/c1cccs1)OCC1CCCO1 (stereo not drawn) is entered as ., 85, 86, -78
CC(Oc1ccc2ccccc2c1)C(=O)NN (stereo not drawn) is entered as 105, 97, 90, .
O=C(Oc1ccc2c(=O)c(Oc3ccccc3Br)c(C(F)(F)F)oc2c1)c1ccco1 is entered as 98, ., ., -31

Following part
SMILES	GIV Gai3 FP	Sa growth inh	Sa growth inh second temp	HCMV NEC inh
CCOC(=O)c1cc2sccc2n1CCC(=O)O	98&101	96	79	-14&-6
CCOc1ccc(N2CC(NC(=O)Cc3cccs3)CC2=O)cc1 (stereo not drawn)	100	92	90	.
COc1ccc(-c2nc(SCC(=O)NC3CCCC3)c(-c3ccc(F)cc3)[nH]2)cc1	102	116	85	-15
CNC(=O)n1nccc1-c1sc2ccccc2c1C	101	54	84	-6
COC(=O)CCSc1ncc(C(F)(F)F)cc1Cl	.	100	86	-36
OCCN1CN(c2nc3ccccc3s2)CN(c2nc3ccccc3s2)C1	103	91	86	-29
COc1ccc(-c2nn3c(N4CCN(CCO)CC4)cc(C)nc3c2C)cc1OC	109	.	.	-14
COc1cc(C2CC(=O)Nc3nc(N)[nH]c(=O)c32)ccc1OCc1ccccc1Cl (stereo not drawn)	101	.	.	-6
O=C(Cn1nnc(-c2ccccc2)n1)N/N=C1\CCCc2ccccc21	.	91	98	-13
Cc1sc(-n2cccc2)c(C(=O)OCc2ccc(C#N)cc2)c1C	.	74	91	-25
O=C(NCCc1ccccc1)Nc1ccccc1	107	80	98	8
Cc1ccc(OCC(=O)OC2CCCN(C)C2)cc1 (stereo not drawn)	.	113	90	-5

Some entries already given, reduced to Sa growth inh second temp and HCMV NEC inh:
canonical_smiles	Sa growth inh second temp	HCMV NEC inh
O=C(NCCc1ccccc1)Nc1ccccc1	98	8
Cc1ccc(OCC(=O)OC2CCCN(C)C2)cc1 (stereo not drawn)	90	-5

The list continues:
SMILES	GIV Gai3 FP	Sa growth inh	Sa growth inh second temp	HCMV NEC inh
CCc1ccc(NCc2cc3ccc(OC)cc3n(CC(=O)NCCc3ccccc3)c2=O)cc1	103	.	.	-10
CCC(C(=O)Nc1c(C)cc(C)cc1C)n1c(=O)c(-c2ccccc2NC(C)=O)nc2ccccc21 (stereo not drawn)	101	113	97	-4
CN(C)c1ccc(CC(C#N)C#N)cc1	104	118	97	.
Cc1nc2oc(C(=O)c3ccccc3)c(N)c2c2c1COC(C)(C)C2	103	86	84	-23
COc1ccc(NC(=O)C2=C(C)Nc3nc(CCCO)nn3C2c2ccc(O)cc2)cc1 (stereo not drawn)	101	94	90	.
Cc1cccc(-c2nc3cc(C)ccc3o2)c1	98	100	107	1
NS(=O)(=O)c1ccccc1Sc1ccccc1C(=O)O	101	116	94	-9
O=C(Nc1ccccc1Cl)c1cccs1	96	107	86	-15
Cc1ccc(-c2nnn(CC(=O)Nc3cccc4cccnc34)n2)o1	101	106	113	-14
COc1ccc2cc(Br)ccc2c1CC(=O)Nc1nccs1	.	88	91	-7
Cc1ccc(S(=O)(=O)N2CCCC2C(=O)Nc2cc(C)on2)cc1 (stereo not drawn)	.	108	91	-15
CC(Oc1ccc(F)cc1)C(=O)Nc1cccc(-c2nn[nH]n2)c1 (stereo not drawn)	101	110	96	-29
N#Cc1ccc(OCC(=O)N2CCCC2=O)cc1	.	92	98	5
CCSCCOC(=O)C1=C(C)NC2=C(C(=O)CC(c3ccc(OC)cc3)C2)C1c1ccc(O)c(OC)c1 (stereo not drawn)	105	.	.	-31
